HIV Env fusion: inhibitors of HIV-1 Env-driven cell-cell fusion, primary screen, HeLa-JRFL effector, CEM21 target cells, luciferase; inhibition, % at 12.3 µM; 360,000 tested, 1.1% active;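 active = mean replicate inhibition score of at least 50 and every replicate individually at or above 50; inconclusive = only one of the two criteria met; inactive = mean below 50 and not all replicates reaching 50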;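 also: 0% = plate neutral controls and 100% = maraviroc near 300 nM; one replicate is shown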
UUG fidelity: modulators of yeast start codon fidelity, primary screen, whole organism, S. cerevisiae, single point, plate reader | S. cerevisiae UUG-firefly luciferase reporter, luminescence/redox ratio | activity score, % at 18.7 µM | 350,000 tested, 0.13% active;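 active = replicate mean at a twofold rise or more, about +100% in these data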;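 also: firefly luciferase made from a UUG start codon reports start codon fidelity; reporter light over untreated wells divided by growth signal over untreated wells; some hits fall short of that in this replicate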
An asterisk follows results filed as active; ? = inconclusive; & = joins results of further samples; [ ] = another dose, or the depositor's remark.

Order of values – HIV Env fusion	UUG fidelity
Cc1noc(C)c1S(=O)(=O)N(C)C[C@@H]1Oc2ccc(N(C)C)cc2CC(=O)N([C@H](C)CO)C[C@H]1C
    2[16.7 µM]	-2
COc1ccccc1C(=O)Nc1ccc2c(c1)C(=O)N(C)C[C@H](OC)[C@@H](C)CN(CC1CC1)[C@@H](C)CO2
    3[16.7 µM]	6
C[C@H]1CCCCO[C@H](CN(C)S(=O)(=O)c2ccccc2)[C@@H](C)CN([C@@H](C)CO)C(=O)c2cc(NS(C)(=O)=O)ccc2O1
    6[16.7 µM]	24
CNC[C@@H]1Oc2cc(C#CCC3CCCC3)ccc2S(=O)(=O)N([C@@H](C)CO)C[C@H]1C
    20[16.7 µM]	15
CNC[C@H]1OCCCC[C@H](C)Oc2ccc(NC(=O)c3ccncc3)cc2C(=O)N([C@@H](C)CO)C[C@@H]1C
    0[16.7 µM]	22
CN(C)CC(=O)Nc1ccc2c(c1)[C@@H]1C[C@H](CC(=O)NC3CCCC3)O[C@H](CO)[C@@H]1O2
    22[16.7 µM]	-7
O=C(O)C[C@H]1C[C@@H]2c3cc(NC(=O)CC4CC4)ccc3O[C@@H]2[C@H](CO)O1
    -29[16.7 µM]	-10
COc1ccc([C@H]2C=C(C(=O)N3CCN(Cc4ccc5c(c4)OCO5)CC3)O[C@@H](OCc3ccc(CO)cc3)C2)cc1
    -5[16.7 µM]	0
CN(C)CC(=O)Nc1ccc2c(c1)[C@H]1C[C@@H](CC(=O)NCc3ccccn3)O[C@@H](CO)[C@H]1O2
    15[16.7 µM]	-25
C[C@@H]1CN([C@@H](C)CO)C(=O)c2cc(C#C[C@@H](C)O)cnc2O[C@H]1CN(C)C(=O)CN1CCOCC1
    10[16.7 µM]	2
N#C[C@@H]1[C@H](c2ccccc2)[C@@H](CO)N1S(=O)(=O)c1cccc(F)c1
    6[16.7 µM]	4
O=C(C[C@H]1CC[C@H](NC(=O)Nc2ccc(C(F)(F)F)cc2)[C@H](CO)O1)NCc1cccc(F)c1
    -2[16.7 µM]	13
C[C@H]1CCCCO[C@@H](CN(C)CC2CCCCC2)[C@@H](C)CN([C@@H](C)CO)C(=O)c2cc(NC(=O)c3ccccc3)ccc2O1
    29[16.7 µM]	29
CC(C)CC#Cc1cnc2c(c1)C(=O)N([C@@H](C)CO)C[C@@H](C)[C@@H](CN(C)CC1CCOCC1)O2
    -7[16.7 µM]	-3
C[C@H](CO)N1C[C@H](C)[C@@H](CN(C)C(=O)Cc2ccncc2)Oc2cc(C#CC3CCCC3)ccc2S1(=O)=O
    -27[16.7 µM]	23
COc1ccc([Si](C)(C)[C@@H]2[C@@H](CCO)O[C@]3(C(=O)N(Cc4ccc(NC(C)=O)cc4)c4ccccc43)[C@H]2C)cc1
    ?	49
COc1ccc(S(=O)(=O)Nc2ccc3c(c2)C(=O)N([C@H](C)CO)C[C@H](C)[C@@H](CN(C)Cc2ccc(C(=O)O)cc2)O3)cc1
    -16[16.7 µM]	-6
Cc1noc(C)c1NC(=O)Nc1ccc2c(c1)CC(=O)N([C@H](C)CO)C[C@@H](C)[C@@H](CN(C)Cc1ccc(Oc3ccccc3)cc1)O2
    -23[16.7 µM]	5
C[C@@H]1CN([C@@H](C)CO)C(=O)Cc2cc(NC(=O)Cc3ccccc3)ccc2O[C@@H]1CN(C)C(=O)Nc1ccc(C(F)(F)F)cc1
    0[16.7 µM]	-1
C[C@H]1CN([C@@H](C)CO)C(=O)c2cccc(NS(C)(=O)=O)c2O[C@@H]1CN(C)S(=O)(=O)c1ccc(F)cc1
    11[16.7 µM]	2
COCCNC(=O)C[C@@H]1C[C@@H]2c3cc(NC(=O)C4CCC4)ccc3O[C@@H]2[C@@H](CO)O1
    -5[16.7 µM]	-7
C[C@H]1CCCCO[C@H](CN(C)Cc2ccc(C(=O)O)cc2)[C@@H](C)CN([C@@H](C)CO)C(=O)c2cc(NC(=O)c3ccccc3)ccc2O1
    -21[16.7 µM]	9
CO[C@H]1CN(C)C(=O)c2cc(NC(=O)NC(C)C)ccc2OC[C@@H](C)N(C(=O)NC(C)C)C[C@H]1C
    9[16.7 µM]	-1
CC(C)NC(=O)Nc1ccc2c(c1)C(=O)N([C@@H](C)CO)C[C@H](C)[C@@H](CN(C)C(=O)C1CCCCC1)OCCCC[C@@H](C)O2
    -18[16.7 µM]	17
COC(=O)C[C@H]1C[C@H]2c3cc(NS(=O)(=O)c4cccc(OC)c4)ccc3O[C@H]2[C@H](CO)O1
    -20[16.7 µM]	-9
CNC(=O)C[C@@H]1CC[C@@H]2[C@@H](COc3ccc(NC(=O)Nc4ccccc4OC)cc3C(=O)N2C)O1
    24[16.7 µM]	3
C[C@@H]1CCCCO[C@@H](CN(C)Cc2ccc3c(c2)OCO3)[C@@H](C)CN([C@H](C)CO)C(=O)c2cc(NC(=O)C3CCCCC3)ccc2O1
    -2[16.7 µM]	5
C[C@@H]1CCCCO[C@@H](CN(C)C(=O)NC2CCCCC2)[C@H](C)CN([C@H](C)CO)C(=O)c2cc(NC(=O)c3ccccc3)ccc2O1
    24[16.7 µM]	17
C[C@H](CO)N1C[C@H](C)[C@H](CN(C)C(=O)Nc2ccc(C(F)(F)F)cc2)Oc2c(NC(=O)Nc3ccccc3)cccc2C1=O
    3[16.7 µM]	1
C[C@H](CO)N1C[C@H](C)[C@H](CN(C)C(=O)c2ccncc2)Oc2cc(C#CC3CC3)ccc2S1(=O)=O
    1[16.7 µM]	-3

A stretch of the results above:
Order of values – HIV Env fusion	UUG fidelity
CN(C)CC(=O)Nc1ccc2c(c1)[C@H]1C[C@@H](CC(=O)NCc3ccccn3)O[C@@H](CO)[C@H]1O2
    15[16.7 µM]	-25
C[C@@H]1CN([C@@H](C)CO)C(=O)c2cc(C#C[C@@H](C)O)cnc2O[C@H]1CN(C)C(=O)CN1CCOCC1
    10[16.7 µM]	2
N#C[C@@H]1[C@H](c2ccccc2)[C@@H](CO)N1S(=O)(=O)c1cccc(F)c1
    6[16.7 µM]	4
O=C(C[C@H]1CC[C@H](NC(=O)Nc2ccc(C(F)(F)F)cc2)[C@H](CO)O1)NCc1cccc(F)c1
    -2[16.7 µM]	13
C[C@H]1CCCCO[C@@H](CN(C)CC2CCCCC2)[C@@H](C)CN([C@@H](C)CO)C(=O)c2cc(NC(=O)c3ccccc3)ccc2O1
    29[16.7 µM]	29
CC(C)CC#Cc1cnc2c(c1)C(=O)N([C@@H](C)CO)C[C@@H](C)[C@@H](CN(C)CC1CCOCC1)O2
    -7[16.7 µM]	-3
C[C@H](CO)N1C[C@H](C)[C@@H](CN(C)C(=O)Cc2ccncc2)Oc2cc(C#CC3CCCC3)ccc2S1(=O)=O
    -27[16.7 µM]	23
COc1ccc([Si](C)(C)[C@@H]2[C@@H](CCO)O[C@]3(C(=O)N(Cc4ccc(NC(C)=O)cc4)c4ccccc43)[C@H]2C)cc1
    ?	49

Next section
Order of values – HIV Env fusion	UUG fidelity
O=C(CCN1CCCCC1)NCC[C@@H]1CC[C@@H](NS(=O)(=O)c2cccc(F)c2)[C@H](CO)O1
    -18[16.7 µM]	2
COc1ccc(S(=O)(=O)Nc2ccc3c(c2)C(=O)N([C@H](C)CO)C[C@@H](C)[C@@H](CN(C)C(=O)NC(C)C)OCCCC[C@H](C)O3)cc1
    -8[16.7 µM]	-13
O=C(CN1CCOCC1)NCC[C@@H]1CC[C@H](NC(=O)c2ccccc2F)[C@H](CO)O1
    27[16.7 µM]	7
CCCNC(=O)C[C@H]1CC[C@H]2[C@H](COc3ccc(NC(=O)CCC)cc3C(=O)N2C)O1
    -12[16.7 µM]	-11
C/C=C/c1ccc2c(c1)O[C@@H](CN(C)C(=O)c1cnccn1)[C@H](C)CN([C@H](C)CO)S2(=O)=O
    4[16.7 µM]	10
C[C@@H]1CN([C@@H](C)CO)S(=O)(=O)c2ccc(C#CC3(O)CCCC3)cc2O[C@H]1CN(C)C(=O)Cc1ccccc1
    -30[16.7 µM]	-2
C[C@@H]1CN([C@H](C)CO)C(=O)c2cc(NC(=O)c3ccccc3)ccc2O[C@@H](C)CCCCO[C@@H]1CN(C)Cc1ccc(Cl)c(Cl)c1
    10[16.7 µM]	25
N#C[C@@H]1[C@H](c2ccc(C3=CCCC3)cc2)[C@H](CO)N1C(=O)c1cccc(F)c1
    14[16.7 µM]	2
Cc1ccc(F)cc1S(=O)(=O)N1CCN(Cc2cccc(OCCO)c2)CC1
    -27[16.7 µM]	-13
CNC[C@@H]1Oc2ccc(NC(=O)Nc3ccc(OC)cc3)cc2C(=O)N([C@@H](C)CO)C[C@@H]1C
    -12[16.7 µM]	-3
C[C@@H]1CCCCO[C@@H](CN(C)S(=O)(=O)c2cccs2)[C@H](C)CN([C@@H](C)CO)C(=O)c2cc(NC(=O)Nc3cccc4ccccc34)ccc2O1
    -11[16.7 µM]	-14
C/C=C/c1ccc2c(c1)O[C@H](CN(C)Cc1ccncc1)[C@@H](C)CN([C@@H](C)CO)S2(=O)=O
    19[16.7 µM]	-5
C[C@H]1CN([C@@H](C)CO)S(=O)(=O)c2ccc(C#Cc3cccc(F)c3)cc2O[C@@H]1CN(C)S(=O)(=O)c1cn(C)cn1
    -3[16.7 µM]	-3
O=C(N[C@H]1CC[C@H](CC(=O)N2CCc3ccccc3C2)O[C@@H]1CO)C1CCOCC1
    20[16.7 µM]	-13
CN(C)CC(=O)N1[C@H](C#N)[C@@H](c2ccc(C#CC3CCCCC3)cc2)[C@@H]1CO
    -11[16.7 µM]	34
CO[C@H]1CN(C)C(=O)c2ccc(NC(=O)c3ccccc3)cc2OC[C@H](C)N(CC2CC2)C[C@H]1C
    -13[16.7 µM]	-6
C[C@H](CO)N1C[C@H](C)[C@@H](CN(C)S(=O)(=O)c2ccc(F)cc2)OCCCC[C@H](C)Oc2ccc(NS(C)(=O)=O)cc2C1=O
    -13[16.7 µM]	3
O=C(C[C@H]1C[C@@H]2c3cc(NC(=O)CC4CC4)ccc3O[C@@H]2[C@H](CO)O1)NCCN1CCCCC1
    2[16.7 µM]	-1
CC(=O)N(C)C[C@H]1Oc2ncc(C#CCC3CCCC3)cc2C(=O)N([C@@H](C)CO)C[C@H]1C
    14[16.7 µM]	-1
C[C@H](CO)N1C[C@H](C)[C@@H](CN(C)C(=O)Nc2ccc(-c3cccs3)cc2)OCc2cn(nn2)CCCC1=O
    -6	2
C/C=C/c1ccc2c(c1)O[C@H](CN(C)Cc1cncnc1)[C@@H](C)CN([C@@H](C)CO)S2(=O)=O
    7[16.7 µM]	14
CNC[C@H]1Oc2cc(C#CC(C)C)ccc2S(=O)(=O)N([C@H](C)CO)C[C@@H]1C
    -8[16.7 µM]	-8
C[C@@H]1CN([C@H](C)CO)S(=O)(=O)c2ccc(-c3cccc(F)c3)cc2O[C@@H]1CN(C)C
    10[16.7 µM]	10
COc1cccc(S(=O)(=O)N[C@H]2C=C[C@H](CC(=O)NCc3ccncc3)O[C@@H]2CO)c1
    13[16.7 µM]	-18
C[C@@H]1CCCCO[C@@H](CN(C)Cc2ccc3c(c2)OCO3)[C@H](C)CN([C@@H](C)CO)C(=O)c2cc(NS(=O)(=O)c3cccs3)ccc2O1
    22&-2[16.7 µM]	29&33
O=C(N[C@@H]1CC[C@H](CCNC(=O)c2ccccc2F)O[C@@H]1CO)c1cnccn1
    ?	-5
CO[C@H]1CN(C)C(=O)c2cc(NC(=O)NC3CCCCC3)ccc2OC[C@@H](C)N(C)C[C@H]1C
    -7[16.7 µM]	-10
O=C(C[C@@H]1C=C[C@H](NC(=O)C2CC2)[C@@H](CO)O1)NCCCN1CCOCC1
    -9[16.7 µM]	-15
COc1ccc(S(=O)(=O)N(C)C[C@H]2Oc3ccc(NC(=O)CCCCCC(=O)Nc4ccccc4N)cc3C(=O)N([C@H](C)CO)C[C@H]2C)cc1
    ?	-8
COc1cccc(S(=O)(=O)Nc2ccc3c(c2)C(=O)N(C)C[C@H](OC)[C@H](C)CN[C@H](C)CO3)c1
    8[16.7 µM]	-13
C[C@@H]1CN([C@@H](C)CO)S(=O)(=O)c2ccc(C#CC3CC3)cc2O[C@H]1CN(C)Cc1ccc(F)cc1
    20[16.7 µM]	0
C[C@H](CO)N1C[C@H](C)[C@@H](CN(C)Cc2ccc(C(=O)Nc3ccccc3N)cc2)Oc2ccc(NS(=O)(=O)c3ccccc3)cc2C1=O
    22[16.7 µM]	-6
CCC(=O)N(C)C[C@H]1Oc2cc(-c3ccccc3)ccc2S(=O)(=O)N([C@@H](C)CO)C[C@@H]1C
    -8[16.7 µM]	23
C[C@@H]1CN([C@H](C)CO)S(=O)(=O)c2ccc(C3=CCCCC3)cc2O[C@@H]1CN(C)Cc1cncnc1
    8[16.7 µM]	40
C[C@@H]1CN([C@H](C)CO)C(=O)c2cc(NC(=O)CCCN(C)C)ccc2O[C@@H]1CN(C)Cc1ccccc1
    17[16.7 µM]	-18
CC(=O)N(C)C[C@@H]1Oc2cc(C3=CCCC3)ccc2S(=O)(=O)N([C@@H](C)CO)C[C@H]1C
    -22[16.7 µM]	26
CC(C)CC#Cc1cnc2c(c1)C(=O)N([C@@H](C)CO)C[C@@H](C)[C@H](CN(C)C(=O)Cc1cccnc1)O2
    0[16.7 µM]	-18
N#C[C@H]1[C@@H](c2ccc(C3=CCCC3)cc2)[C@@H](CO)N1C(=O)C1CCC1
    2[16.7 µM]	3

Not all compounds are listed, so the mix of outcomes need not match the whole.
